Screening data: PubChem, Broad Institute
A1 apoptosis 2: compounds inhibiting A1, read as caspase activation; MEF A1-2A-BIM cells, caspase-Glo luminescence, 3 h; percent of clofoctol response, DMSO zero; caspase activation, % (test concentration not listed); 24,000 tested, under 10 active; in the data active = caspase activation above about 5.9%;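 note: wells of about 30 µL received 50 nL stock; the first replicate is given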
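System: mouse embryonic fibroblasts co-expressing A1 and BIM (A1-2A-BIM), primed for A1 dependence; amount: 2500 cells/well; doses: 50 nL pinned compound; schedule: cells settled overnight, compound exposure 3 h at 37 °C, 5% CO2; detection: Caspase-Glo 3/7 luminescence, 1 h at room temperature; read-out: Caspase-3/7 activation, seen as rise in luminescence signal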
* = called active by the depositor. The list is partial. The share of hits here may be higher or lower than overall.

SMILES | A1 apoptosis 2
Cc1noc(C)c1S(=O)(=O)N(C)C[C@H]1Oc2c(NC(=O)C3CCCCC3)cccc2C(=O)N([C@H](C)CO)C[C@H]1C | 0.1
Cc1ccc(S(=O)(=O)N(C)C[C@H]2Oc3ccc(NC(=O)C4CC4)cc3C(=O)N([C@@H](C)CO)C[C@H]2C)cc1 | 0.3
C[C@@H]1CN([C@H](C)CO)C(=O)c2cccc(NC(=O)c3ccncc3)c2O[C@H]1CN(C)Cc1ccc(C(=O)Nc2ccccc2N)cc1 | 0.3
C[C@H]1CN([C@@H](C)CO)C(=O)c2cc(NS(=O)(=O)c3ccccc3)ccc2O[C@H]1CN(C)Cc1ccc(C(=O)Nc2ccccc2N)cc1 | 1.3
C[C@H](CO)N1C[C@H](C)[C@H](CN(C)Cc2ccccc2)Oc2c(NC(=O)Nc3ccccc3)cccc2C1=O | -0.5
C[C@H]1CN([C@@H](C)CO)C(=O)c2cccc(N(C)C)c2O[C@@H]1CN(C)Cc1ccc(Cl)c(Cl)c1 | -0.5
C[C@@H]1CCCCO[C@@H](CN(C)C)[C@H](C)CN([C@H](C)CO)C(=O)c2cc(NS(=O)(=O)c3ccc(F)cc3)ccc2O1 | 1.4
C[C@H]1CN([C@@H](C)CO)C(=O)c2cc(NS(=O)(=O)c3ccc(Cl)cc3)ccc2O[C@@H]1CN(C)Cc1ccc(Cl)c(Cl)c1 | 0.5
C[C@@H]1CN([C@@H](C)CO)C(=O)c2cc(NC(=O)Nc3cccc4ccccc34)ccc2O[C@@H]1CN(C)C(=O)NC1CCCCC1 | 0.7
C[C@H](CO)N1C[C@H](C)[C@@H](CN(C)C(=O)Nc2ccc3c(c2)OCO3)Oc2ccc(NC(=O)CCCN(C)C)cc2C1=O | 1.3
C[C@@H]1CCCCO[C@H](CN(C)C(=O)Nc2cccc3ccccc23)[C@@H](C)CN([C@@H](C)CO)C(=O)c2cc(NC(=O)Nc3ccc(C(F)(F)F)cc3)ccc2O1 | 0.5
C[C@H]1CN([C@@H](C)CO)C(=O)c2cc(NC(=O)Nc3ccccc3)ccc2O[C@@H]1CN(C)Cc1ccc2c(c1)OCO2 | 0.7
C[C@H]1CN([C@@H](C)CO)C(=O)c2cccc(NC(=O)c3ccncc3)c2O[C@@H]1CN(C)C(=O)Nc1ccc(C(F)(F)F)cc1 | -0.4
COc1ccc(CN(C)C[C@H]2Oc3c(NC(=O)Nc4ccc(C(F)(F)F)cc4)cccc3C(=O)N([C@@H](C)CO)C[C@H]2C)cc1 | -0.5
C[C@@H]1CN([C@H](C)CO)C(=O)CCCn2nncc2CO[C@H]1CN(C)C(=O)Nc1ccc(N2CCN(C)CC2)cc1 | -1.7
NC(=O)NCC#Cc1ccc2c(c1)[C@]1(C(=O)N2)[C@H](C(=O)O)[C@H]2C(=O)O[C@H](c3ccccc3)[C@H](c3ccccc3)N2[C@@H]1c1ccc(OCCO)cc1 | 0.0
C[C@@H]1CCCCO[C@H](CN(C)S(C)(=O)=O)[C@H](C)CN([C@@H](C)CO)C(=O)c2cc(NC(=O)CCC(F)(F)F)ccc2O1 | 1.2
C[C@H](CO)N1C[C@H](C)[C@H](CN(C)C(=O)Nc2ccccc2)Oc2ncc(C#Cc3ccc(C(F)(F)F)cc3)cc2C1=O | -0.5
C[C@@H]1CN([C@H](C)CO)C(=O)c2cc(N(C)C)ccc2O[C@@H](C)CCCCO[C@@H]1CN(C)C(=O)Nc1ccc(C(F)(F)F)cc1 | -0.7
CC(C)NC(=O)Nc1cccc2c1O[C@@H](CN(C)C(=O)NC1CCCCC1)[C@@H](C)CN([C@@H](C)CO)C2=O | -1.0

Rewritten field by field: two of the compounds above
> NC(=O)NCC#Cc1ccc2c(c1)[C@]1(C(=O)N2)[C@H](C(=O)O)[C@H]2C(=O)O[C@H](c3ccccc3)[C@H](c3ccccc3)N2[C@@H]1c1ccc(OCCO)cc1
  A1 apoptosis 2: 0.0

> C[C@@H]1CCCCO[C@H](CN(C)S(C)(=O)=O)[C@H](C)CN([C@@H](C)CO)C(=O)c2cc(NC(=O)CCC(F)(F)F)ccc2O1
  A1 apoptosis 2: 1.2

Structures listed so far that have nitrogen in an aromatic ring, in the order listed:
SMILES | A1 apoptosis 2
Cc1noc(C)c1S(=O)(=O)N(C)C[C@H]1Oc2c(NC(=O)C3CCCCC3)cccc2C(=O)N([C@H](C)CO)C[C@H]1C | 0.1
C[C@@H]1CN([C@H](C)CO)C(=O)c2cccc(NC(=O)c3ccncc3)c2O[C@H]1CN(C)Cc1ccc(C(=O)Nc2ccccc2N)cc1 | 0.3
C[C@H]1CN([C@@H](C)CO)C(=O)c2cccc(NC(=O)c3ccncc3)c2O[C@@H]1CN(C)C(=O)Nc1ccc(C(F)(F)F)cc1 | -0.4
C[C@@H]1CN([C@H](C)CO)C(=O)CCCn2nncc2CO[C@H]1CN(C)C(=O)Nc1ccc(N2CCN(C)CC2)cc1 | -1.7
C[C@H](CO)N1C[C@H](C)[C@H](CN(C)C(=O)Nc2ccccc2)Oc2ncc(C#Cc3ccc(C(F)(F)F)cc3)cc2C1=O | -0.5

Further results
SMILES | A1 apoptosis 2
CNC[C@H]1OCCCC[C@@H](C)Oc2ccc(NC(=O)Nc3cccc4ccccc34)cc2C(=O)N([C@H](C)CO)C[C@H]1C | -1.2
C[C@H](CO)N1C[C@H](C)[C@@H](CN(C)CC2CC2)Oc2c(NC(=O)c3ccncc3)cccc2C1=O | 0.9
O=C1N(CCS(=O)(=O)c2ccccc2)Cc2ccccc2C[C@]12N=C(c1ccc(OCCCO)cc1)O[C@@H]2c1ccccc1 | 0.0
C[C@@H]1CN([C@@H](C)CO)C(=O)c2cc(NS(C)(=O)=O)ccc2O[C@H]1CN(C)Cc1ccncc1 | 0.5
COc1ccc(CN(C)C[C@@H]2Oc3ccc(NC(=O)Cc4cn(C)c5ccccc45)cc3C(=O)N([C@H](C)CO)C[C@@H]2C)cc1 | -0.3
C[C@H](CO)N1C[C@H](C)[C@H](CN(C)C)Oc2ccc(N(C)C)cc2CC1=O | 2.8
C[C@@H]1CN([C@H](C)CO)C(=O)Cc2cc(NS(=O)(=O)c3cccs3)ccc2O[C@@H]1CN(C)CC1CC1 | 0.0
COc1ccc(NC(=O)N(C)C[C@@H]2Oc3ccc(NC(=O)C4CC4)cc3C(=O)N([C@@H](C)CO)C[C@H]2C)cc1 | 0.9
COc1ccc(NC(=O)N(C)C[C@H]2Oc3ccc(NC(=O)CCCCCC(=O)Nc4ccccc4N)cc3CC(=O)N([C@H](C)CO)C[C@@H]2C)cc1 | -0.3
C[C@H]1CN([C@@H](C)CO)C(=O)Cc2cc(NS(=O)(=O)c3ccccc3)ccc2O[C@@H]1CN(C)CC1CCCCC1 | -0.1
CC(C)NC(=O)N(C)C[C@@H]1OCCCC[C@@H](C)Oc2ccc(NC(=O)C3CCCCC3)cc2C(=O)N([C@@H](C)CO)C[C@H]1C | 0.7
C[C@@H]1CN([C@H](C)CO)C(=O)c2cc(NC(=O)c3ccccc3)ccc2O[C@@H](C)CCCCO[C@@H]1CN(C)C(=O)CCCN(C)C | -0.6
C[C@@H]1CN([C@H](C)CO)C(=O)CCCn2cc(nn2)CO[C@@H]1CN(C)Cc1ccccc1 | 0.0
Cc1noc(C)c1NC(=O)Nc1cccc2c1O[C@H](CN(C)S(=O)(=O)c1ccc(Cl)cc1)[C@H](C)CN([C@H](C)CO)C2=O | -0.2
COc1ccc(/C=N/NC(=O)c2cccc(C(=O)NO)c2)cc1O | -0.5
C[C@@H]1CN([C@@H](C)CO)C(=O)c2cccc(NS(=O)(=O)c3cn(C)cn3)c2O[C@H]1CN(C)Cc1ccc(C(F)(F)F)cc1 | 0.5
C[C@H](CO)N1C[C@H](C)[C@H](CN(C)C(=O)Nc2cccc3ccccc23)Oc2ccc(NS(=O)(=O)c3cccs3)cc2C1=O | -0.3
C[C@@H]1CN([C@H](C)CO)C(=O)c2cc(NS(=O)(=O)c3cn(C)cn3)ccc2O[C@H]1CN(C)C(=O)Nc1ccc2c(c1)OCO2 | 0.0
Cc1ccccc1CN(C)C[C@@H]1OCc2cn(nn2)CCCC(=O)N([C@H](C)CO)C[C@H]1C | -0.7
C[C@H](CO)N1C[C@H](C)[C@H](CN(C)S(=O)(=O)c2cccs2)Oc2c(NS(=O)(=O)c3ccccc3)cccc2C1=O | 2.3
C[C@H](CO)N1C[C@H](C)[C@H](CN(C)S(=O)(=O)c2ccc(Cl)cc2)OCCCC[C@H](C)Oc2ccc(NC(=O)Nc3ccc(C(F)(F)F)cc3)cc2C1=O | -0.9
C[C@@H]1CCCCO[C@@H](CN(C)C(=O)Nc2cccc3ccccc23)[C@@H](C)CN([C@H](C)CO)C(=O)c2cc(NC(=O)c3ccncc3)ccc2O1 | 0.4
C[C@H]1CN([C@@H](C)CO)C(=O)c2cccc(NC(=O)NC3CCCCC3)c2O[C@H]1CN(C)S(=O)(=O)c1cccs1 | 1.5
C[C@@H]1CN([C@H](C)CO)C(=O)c2cccc(NS(=O)(=O)c3cn(C)cn3)c2O[C@@H]1CN(C)C(=O)Nc1ccccc1 | 1.3
C[C@H](CO)N1C[C@H](C)[C@@H](CN(C)Cc2ccc3c(c2)OCO3)Oc2ccc(NC(=O)NC3CCCCC3)cc2C1=O | 0.2
C[C@H]1CN([C@@H](C)CO)C(=O)c2cc(NS(=O)(=O)c3ccc(F)cc3)ccc2O[C@H]1CN(C)Cc1ccc(Oc2ccccc2)cc1 | -0.1
COc1ccc(CN(C)C[C@H]2Oc3ccc(NS(=O)(=O)c4cn(C)cn4)cc3CC(=O)N([C@H](C)CO)C[C@H]2C)cc1 | 1.5
CNC[C@@H]1Oc2ccc(NC(=O)Cc3ccccc3)cc2C(=O)N([C@H](C)CO)C[C@H]1C | -0.9
COc1ccccc1S(=O)(=O)N(C)C[C@H]1OCc2cnnn2CCCC(=O)N([C@H](C)CO)C[C@H]1C | -0.4
C[C@@H]1CN([C@H](C)CO)C(=O)c2cc(NC(=O)Cc3ccccc3)ccc2O[C@@H](C)CCCCO[C@@H]1CN(C)S(=O)(=O)c1ccccc1 | -0.7
C[C@@H]1CN([C@@H](C)CO)C(=O)c2cc(NC(=O)CCCN(C)C)ccc2O[C@H]1CN(C)Cc1ccccc1 | 0.6
C[C@H]1CN([C@@H](C)CO)C(=O)c2cc(NC(=O)Cc3ccccc3)ccc2O[C@@H]1CN(C)Cc1ccncc1 | -0.8
CC(C)NC(=O)Nc1cccc2c1O[C@@H](CN(C)S(=O)(=O)c1cccs1)[C@H](C)CN([C@H](C)CO)C2=O | 0.7
C[C@@H]1CCCCO[C@@H](CN(C)Cc2ccc(Cl)c(Cl)c2)[C@@H](C)CN([C@H](C)CO)C(=O)c2cc(NS(=O)(=O)c3ccc(Cl)cc3)ccc2O1 | -1.5
C[C@H]1CN([C@@H](C)CO)C(=O)Cc2cc(NC(=O)NC3CCCCC3)ccc2O[C@@H]1CN(C)C(=O)Nc1ccc(F)cc1 | -0.6
C[C@H]1CN([C@@H](C)CO)C(=O)Cc2cc(NC(=O)Nc3cccc4ccccc34)ccc2O[C@@H]1CN(C)CC1CC1 | 0.5
Cc1ccc(S(=O)(=O)N(C)C[C@@H]2Oc3ccc(NC(=O)C4CCCCC4)cc3C(=O)N([C@H](C)CO)C[C@H]2C)cc1 | 0.0
Cc1ccc(S(=O)(=O)N(C)C[C@@H]2Oc3c(NC(=O)C4CC4)cccc3C(=O)N([C@@H](C)CO)C[C@H]2C)cc1 | 0.9
C[C@@H]1CN([C@H](C)CO)C(=O)c2cccc(NS(=O)(=O)c3cn(C)cn3)c2O[C@H]1CN(C)C(=O)Nc1ccc(C(F)(F)F)cc1 | -0.9
CC(C)NC(=O)Nc1ccc2c(c1)C(=O)N([C@H](C)CO)C[C@@H](C)[C@@H](CN(C)CC1CCCCC1)OCCCC[C@@H](C)O2 | 0.8
C[C@H](CO)N1C[C@H](C)[C@@H](CN(C)C(=O)NC2CCCCC2)Oc2ccc(NC(=O)CCN3CCOCC3)cc2CC1=O | 0.3
Cc1noc(C)c1S(=O)(=O)N(C)C[C@H]1Oc2ccc(NS(=O)(=O)c3ccccc3)cc2C(=O)N([C@H](C)CO)C[C@H]1C | 0.0
Cc1noc(C)c1NC(=O)N(C)C[C@H]1OCCCC[C@@H](C)Oc2ccc(NC(=O)Nc3ccc(F)cc3)cc2C(=O)N([C@@H](C)CO)C[C@H]1C | 0.5
C[C@@H]1CN([C@H](C)CO)C(=O)Cc2cc(NC(=O)c3ccncc3)ccc2O[C@H]1CN(C)C(=O)Nc1ccc(F)cc1 | 2.0
C[C@@H]1CN([C@@H](C)CO)C(=O)c2cccc(NS(=O)(=O)c3ccc(F)cc3)c2O[C@@H]1CN(C)C(=O)Nc1ccc2c(c1)OCO2 | 1.8
COc1ccc(NC(=O)N(C)C[C@@H]2Oc3ccc(NC(=O)Nc4ccc(F)cc4)cc3C(=O)N([C@@H](C)CO)C[C@H]2C)cc1 | 0.8
C[C@@H]1CN([C@H](C)CO)C(=O)c2cc(NS(C)(=O)=O)ccc2O[C@H]1CN(C)S(=O)(=O)c1ccccc1 | -0.6
C[C@H](CO)N1C[C@H](C)[C@@H](CN(C)C(=O)Nc2ccc3c(c2)OCO3)Oc2ccc(NS(C)(=O)=O)cc2C1=O | 0.8
C[C@@H]1CN([C@@H](C)CO)C(=O)c2cc(NC(=O)Nc3ccc(F)cc3)ccc2O[C@H]1CN(C)Cc1ccccc1 | 0.6
C[C@H](CO)N1C[C@H](C)[C@H](CN(C)C(=O)Nc2ccc(F)cc2)Oc2ccc(NC(=O)Nc3ccccc3)cc2CC1=O | -0.6
C[C@@H]1CN([C@H](C)CO)C(=O)Cc2cc(NS(=O)(=O)c3ccc(Cl)cc3)ccc2O[C@@H]1CN(C)S(=O)(=O)c1ccc(Cl)cc1 | 2.3
C[C@@H]1CN([C@H](C)CO)C(=O)Cc2cc(NC(=O)C3CCCCC3)ccc2O[C@@H]1CN(C)C(=O)Nc1cccc2ccccc12 | 1.1
